Sfp inh: Sfp phosphopantetheinyl transferase inhibition | Q9F4F7 | Biochemical Sfp PPTase activity, qHTS | Potency, µM, without a hit: max response, negative = inhibition, usual class: inhibitors | hit rate 3.5% among 310,000 | AID 1490; active means well fitted inhibition curve with a large enough effect; inconclusive means small, poorly fitted or top-dose-only effect, or another doubt; inactive means no such curve, though single readings can be large or run the other way;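 further: the enzyme is Sfp with the accession as filed and its product quenches rhodamine fluorescence; potency means the concentration at half of the fitted maximal effect; 0% = enzyme reaction without inhibitor and -100% = no enzyme wells; top concentration of the series not given in the record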
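Step 1, compound plus 15 nM Sfp-PPTase, 15 min, room temperature. Step 2, add rhodamine-CoA (5 uM) and BHQ-2-YbbR (12.5 uM). Step 3, read 525/598 nm fluorescence at 0 and 30 min.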
ClpP mod: qHTS Assay for Activators of ClpP; purified B. subtilis ClpP, FRET peptide cleavage, 20 min; ATP-dependent Clp protease proteolytic subunit (Bacillus subtilis (strain 168)), P80244; AID 651965, 2013; Potency, µM (top dose mostly 57.5 µM), inactives show top-dose activity change, negative = active; hit rate 1.9% among 340,000; active = well fitted falling curve with a large enough effect; inconclusive = small, poorly fitted or top-dose-only effect; inactive = no such curve, though single readings can be large or run the other way; further: potency means the concentration at half of the fitted maximal effect; the source files actives as falling curves though it sought activators and does not explain the sign; nearly all actives have a fitted effect of over 65% in size; many hits overshoot -100%
Target sequence (P80244 whole entry, looked up): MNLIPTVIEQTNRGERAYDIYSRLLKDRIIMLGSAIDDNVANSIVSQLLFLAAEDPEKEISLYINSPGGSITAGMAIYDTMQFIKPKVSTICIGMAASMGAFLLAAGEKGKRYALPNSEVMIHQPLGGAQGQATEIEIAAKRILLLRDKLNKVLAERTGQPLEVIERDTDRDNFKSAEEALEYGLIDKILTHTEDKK
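Purified B. subtilis ClpP, 10 microg/mL final in Tris/HCl pH8 with KCl, BSA, glycerol and Tween-20, cleaved an Abz/nitrotyrosine-quenched decapeptide. Fluorescence (ex 320, em 430) was read at 0 and 20 min at room temperature. Delta was normalized to 5.8 microM ADEP and DMSO/no-enzyme controls.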
D2 PAM: positive allosteric modulators of human D2 dopamine receptor. hit rate 0.23% among 360,000. potentiation, % (test concentration not listed). P14416. DiscoveRx D2 beta-arrestin cells, luminescence, 90 min; 100% = 57 uM dopamine signal; active = potentiation of 50% or more; inconclusive = 30% to 50%; inactive = 30% or less;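 further: compound concentration not given in the record; tested on top of an EC20 dose of dopamine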
Target sequence (P14416 whole entry, looked up): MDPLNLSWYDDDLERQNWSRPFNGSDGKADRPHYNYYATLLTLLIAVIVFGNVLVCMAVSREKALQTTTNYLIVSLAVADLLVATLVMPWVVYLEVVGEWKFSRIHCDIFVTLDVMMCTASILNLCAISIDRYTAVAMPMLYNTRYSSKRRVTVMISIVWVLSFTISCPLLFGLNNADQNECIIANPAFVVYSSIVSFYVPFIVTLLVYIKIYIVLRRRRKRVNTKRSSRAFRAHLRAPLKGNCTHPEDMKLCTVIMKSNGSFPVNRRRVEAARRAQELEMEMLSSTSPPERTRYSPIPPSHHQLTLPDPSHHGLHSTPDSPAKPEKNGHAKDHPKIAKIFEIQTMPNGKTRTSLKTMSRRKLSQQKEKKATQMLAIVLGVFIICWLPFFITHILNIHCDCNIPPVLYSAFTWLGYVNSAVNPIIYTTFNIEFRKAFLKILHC
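PathHunter beta-arrestin assay in DiscoveRx D2 cells. Compounds were added with an EC20 of dopamine (50 nM final) for 90 min at 37 deg C. Luminescence was read 1 h after detection reagent, with 57 uM dopamine as the EC100 control.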
gsp antag: antagonists of gsp mutant (McCune-Albright syndrome). gsp-mutant cells, cAMP HTRF, 30 min; control for the full effect not named in the record. Potency, µM (titrated, usually from 76.9 µM), for the others: at the top dose activity change, negative = inhibition, actives largely listed as inhibitors. hit rate 0.4% among 340,000; active = falling curve of any shape with a large fitted effect; inconclusive = falling curve, mostly with a smaller effect; inactive = flat or rising curve; cell line not stated here;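 further: intracellular cAMP measured with PDE inhibitor Ro 20-1724 present during compound exposure; potency means the concentration at half of the fitted maximal effect; on the % scale 0 is the no-effect control and ±100 the full control effect; nearly all actives have a fitted effect of over 65% in size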
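Cells, 2000/well, grown 16–24 h in DMEM 10% FBS with 0.5 mg/ml G418, then compounds plus […] (300 uM addition stock), 30 min at 37C. cAMP read by HTRF (cAMP-d2 and anti-cAMP antibody-K in lysis buffer) after 30 min RT.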
gsp agonist: activates gsp, the McCune-Albright syndrome mutation; gsp mutant cells, cAMP HTRF, 30 min; control for the full effect not named in the record; Potency, µM (top dose mostly 76.9 µM), for inactives: at the top dose activation (cAMP increase), actives largely listed as activators; hit rate 0.13% among 340,000; active = well fitted activation curve with a large enough effect; inconclusive = small, poorly fitted or top-dose-only effect, or another doubt; inactive = no such curve, though single readings can be large or run the other way; cell line not stated here;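 further: phosphodiesterase inhibitor Ro 20-1724 added with compounds to block cAMP breakdown; potency means the concentration at half of the fitted maximal effect; nearly all actives have a fitted effect of over 60% in size; about a fifth of the inactives were tested at one dose only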
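Cells in DMEM/10% FBS with G418 were pretreated with compounds in DMSO plus […] (300 uM stock) for 30 min at 37C. cAMP was measured by HTRF (cAMP-d2 plus anti-cAMP antibody-K) after 30 min at room temperature.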
Menin-MLL FL inh: displaces fluorescein MLL peptide from human menin; 290,000 tested, under 10 active; AID 1766; Fluorescence polarization, fluorescein-MLL peptide displacement from menin; FP activity change, % at 61.4 µM; inconclusive = falling polarisation curve, or a change in total fluorescence; inactive = total fluorescence flat and polarisation flat or rising; no compound was filed as active; the % refers to the polarisation; negative = inhibition;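 further: % of control where 0% means no effect; inhibitors lower the polarisation; unlabelled MLL peptide was the positive control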
TRPV1 potentiator: potentiators of human vanilloid receptor 1 (TRPV1); potentiation, % at 8.33 µM; Q8NER1; AID 540277; TRPV1-expressing cells, Fluo-8 calcium influx, capsaicin EC20 potentiation; host cell line not named in the record; control for the full effect not named in the record; hit rate 0.02% among 320,000; active means potentiation above 80%; inconclusive means 30% to 80%; inactive means below 30%; further: 0% is about no effect
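Fluo-8 calcium influx in TRPV1-expressing cells, kinetic read (ex 480/em 520 nm). Compound added and read 3 min for agonist activity, followed by capsaicin at EC20 final and 2 min further read for enhancement.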
An asterisk follows results filed as active; ? = inconclusive; . = no result given; [ ] = another dose, or the depositor's remark.

canonical_smiles	Sfp inh	ClpP mod	D2 PAM	gsp antag	gsp agonist	Menin-MLL FL inh	TRPV1 potentiator
COc1ccc(Br)cc1C(=O)Nc1cccc2ncccc12	9%	-1.5%	-11	-8%	-4%	0.1	12
Cc1ccc(Nc2nc(-c3sc(N)nc3C)cs2)cc1	?	-5.8%	-31	-2%	-6%	7.6	11
O=C(c1ccccc1)c1ccc2nc(N3CCN(C(=O)c4ccco4)CC3)c3nncn3c2c1	?	-4.8%	-2	-20%	14%	5.6	.
Nn1cc(-c2ccccc2)nc1SCC(=O)Nc1cccc(S(N)(=O)=O)c1	-2%	.	7	-18%	-13%[15.4 µM]	-0.9	-5
CCOC(=O)C1CCCN(C(=O)c2cc(-c3ccc(C)cc3)on2)C1 (stereo unspecified)	-2%	0.8%	-12	?	8%	1.9	2
Cc1cccc(CN2CCc3c(OCC(=O)N4CCCc5ccccc54)cccc3C2=O)c1	-11%	-5.6%	-4	-29%	6%	-1.0	-2
O=C(NNc1c(Cl)cncc1Cl)c1sccc1Cl	4%	.	-10	7%	0%	3.0	10
Cc1ccc(CC#N)c(-c2c(CC#N)ccc(C)c2C)c1C	.	0.1%	-7	.	?	.	.
CC(C)(C)n1nnnc1C(c1cccs1)N(Cc1ccccc1)Cc1ccco1 (stereo unspecified)	13%	0.4%	-29	-18%	5%	1.7	-2
O=C1NC(=O)/C(=C\c2ccc(OCc3cnc(Cl)s3)cc2)S1	2%	.	-3	.	-2%[15.4 µM]	3.5	0
COc1ccccc1CNc1ccc(N2CCOCC2)c(C(=O)O)c1	10%	?	-14	0%	9%	3.1	-36
NC(=O)c1ncc(C(F)(F)F)cc1Oc1cccnc1	9%	.	-3	1%	0%[15.4 µM]	0.3	1
CCc1ccc(OC(C)C(=O)Nc2ccccc2C(=O)N2CCOCC2)cc1 (stereo unspecified)	28%	-3.8%	-3	2%	-6%	.	-3
CCOc1ccc2nc(NC(=O)C34CC5CC(CC(NC(C)=O)(C5)C3)C4)sc2c1	14%	-1.3%	-1	-11%	-3%[15.4 µM]	.	21
N#Cc1c(-c2ccco2)c2c([nH]c1=S)CCCC2	4.5µM*	-2.8%	1	10%	?	?	2
COc1cc(OC)c(OC)cc1/C=C1/Cc2ccccc2C1=O	11%	0.3%	-9	6%	4%	?	1
CCCCCC(=O)Cc1cc(O)cc2c1C(=O)Oc1cc(O)c(C(=O)O)c(CCCCC)c1O2	9%	-2.2%	1	-6%	.	11	11
O=C(c1cc(-c2cccc(Cl)c2)on1)N1CCCC1	-2%	.	17	-14%	6%[15.4 µM]	9.3	2
NC(=O)c1ccc2c(=O)n3c(-c4cccs4)csc3nc2c1	8%	-18%	-3	-1%	.	0.7	19
Cc1ccn2cc(C34CC5CC(CC(C5)C3)C4)nc2c1	4%	.	-10	-7%	12%	-5.3	-14
CCOC(=O)c1c(CSc2ccc(C)cc2)n(C)c2cc(Br)c(O)c(CN(C)C)c12	56µM*	1.7%	-21	-16%	0%	2.6	-6
CCN1C(=O)/C(=C2/Sc3ccccc3N2CC)S/C1=N\c1ncn[nH]1	-19%	0.0%	0	2%	-10%[15.4 µM]	?	-9
COc1ccc2c(c1)cc(C(=O)N[C@H](C(=O)N1CCC[C@H]1C(=O)O)C(C)C)n2C	3%	5.0%	-19	5%	.	0.8	?
O=C(COC(=O)c1ccc2c(c1)S(=O)(=O)c1ccccc1C2=O)NC1CC1	12%	.	24	-9%	3%	-1.0	16
O=C(O)CC(NC(=O)C12CC3CC(CC(C3)C1)C2)c1cccc(Cl)c1 (stereo unspecified)	0%	0.9%	-1	-8%	5%	0.8	9
CCOC(=O)c1ccc(NC(=O)CC2COc3ccccc3O2)cc1 (stereo unspecified)	13%	-1.9%	-1	-1%	-24%	5.1	13
Cc1cc(C)cc(NC2=NCC(=O)N2Cc2ccccc2)c1	3%	-0.2%	28	-11%	-38%[inhibitor]	0.7	1
Cc1cc2nn(-c3cccc4ccccc34)nc2cc1N	-5%	-15%	10	-9%	-14%	2.1	-3
COC(=O)C1=C(C(=O)c2ccccc2)C(c2ccccc2)n2nnnc2N1 (stereo unspecified)	9%	.	-4	-17%	?	2.6	4
O=C(CN1CCOCC1)NCc1cc([N+](=O)[O-])ccc1O	0%	2.3%	-3	4%	-39%[inhibitor]	-0.1	0
Cn1c2ccccc2c2cc(/C=N/NC(=O)c3ccc(O)cc3O)ccc21	-7%	3.6%	0	?	20%	7.0	-10
O=C(Nc1ccc(-c2cnco2)cc1)c1ccccc1	14%	.	0	3%	28%	0.5	-18
Cc1cc(-c2ccccc2)n2ncnc2n1	22%	3.8%	-3	4%	21%	-0.4	5
CCCCn1c(N)c(N(CC(C)C)C(=O)C2CC(=O)N(c3ccc(CC)cc3)C2)c(=O)[nH]c1=O (stereo unspecified)	.	-1.7%	13	3%	-2%[15.4 µM]	.	-1
CCN(CC)CCN(Cc1cc2cc3c(cc2[nH]c1=O)OCCO3)C(=S)NCCOC	.	4.3%	-13	.	?	.	.
O=C1CN(S(=O)(=O)c2cc(Cl)ccc2Cl)CCN1	17%	-2.9%	0	-14%	-25%[15.4 µM]	3.8	9
N#Cc1cccc(NC(=O)CN2C(=O)NC3(CCCCCC3)C2=O)c1	.	-1.7%	3	8%	16%	.	1
CC(=O)Nc1ccc(Sc2ccc([N+](=O)[O-])o2)cc1	.	.	-20	13%	13%	.	.
CN1C(=O)C(CC(=O)NC2CCCCC2)SC1=Nc1ccccc1 (stereo unspecified)	?	0.7%	-4	3%	-4%	0.8	-8
O=C(CCC(=O)N1CCOCC1)Nc1nnc(C2CCCCC2)s1	1%	-1.4%	-9	3%	-3%	3.4	-3
CCCN1CCN(CCCNC(=O)CN2C(=O)c3cccnc3Oc3ccc(Cl)cc32)CC1	5%	-1.7%	-20	9%	33%	.	-13
CCN(CC)C(=O)C1CCC(CNS(=O)(=O)c2cccc3cccnc23)CC1 (stereo unspecified)	-1%	0.7%	-1	2%	-46%[inhibitor]	-1.1	-6
C(=Cc1cnc2ccccc2n1)c1ccc2c(c1)OCO2	.	-14%	-14	.	67%	.	.
O=C(Nc1ccc2c(c1)nc1n2CCN(C2CCCCC2)C1)c1ccco1	79µM*	-11%	-3	-7%	?	3.8	3
Cc1ccc(-n2c(SCC(=O)NCC3CCCO3)nc3ccccc3c2=O)cc1C (stereo unspecified)	.	.	6	-4%	-22%[15.4 µM]	.	-15
COCCNC(=O)CN1C(=O)NC2(CCCCCC2)C1=O	20%	0.9%	-3	14%	-30%[inhibitor]	2.4	5
O=C(CCn1c(=O)sc2ccccc21)Nc1cccnc1	-6%	0.0%	-9	-4%	-9%	1.3	-6
CC(=O)Nc1ccc(-n2nnnc2SCC(=O)NCc2cccs2)cc1	18%	-0.1%	-34	-1%	-1%	-2.2	-6
Cc1nc(SCC(=O)O)c2oc3ccccc3c2n1	13%	-3.4%	-12	7%	19%	-0.7	-30
O=C(COc1cccc2cccnc12)NNC(=S)Nc1ccccc1	-2%	.	.	.	.	0.1	22

(continued)
canonical_smiles	Sfp inh	ClpP mod	D2 PAM	gsp antag	gsp agonist	Menin-MLL FL inh	TRPV1 potentiator
CCCn1c(C(C)NC(=O)c2ccccc2)nc2ccccc21 (stereo unspecified)	9%	0.8%	-25	4%	-19%	1.0	6
CN(C)S(=O)(=O)c1cccc(NC(=O)CSc2ncnc3ccccc23)c1	7%	.	5	15%	?	2.4	7
Cc1ccc(-c2nnc(CSc3nnc(COc4cccc5ccccc45)n3-c3ccccc3)o2)cc1	10%	-4.1%	9	-20%	-8%	-0.5	7
COc1ccc(CN2CCC(C(=O)c3cccc(Cl)c3)CC2)cc1	26%	0.8%	-4	2%	-8%	1.8	2
Cc1ccc(-n2ncc3c(=O)n(-c4ccc(C)c(C)c4)c(C)nc32)cc1	-15%	-5.4%	9	-18%	10%	0.1	-33
CCN(CC(=O)Nc1ccc(C)c(S(=O)(=O)N(C)C)c1)Cc1ccccc1	-18%	0.6%	0	-2%	13%	0.7	-7
CCCCSc1nc(N)c(C#N)c(-c2cccs2)c1C#N	-7%	-20%	4	4%	-6%	1.8	-6
Nc1sccc1C(=O)c1ccccc1	28µM*	-0.9%	-5	4%	-3%	?	0
CCN(CC(=O)Nc1ccc(NC(C)=O)cc1)C(=O)c1cccc(S(=O)(=O)N2CCc3ccccc3C2)c1	.	-0.7%	-21	-4%	1%	.	-13
O=c1c2oc3ccccc3c2ncn1Cc1ccccc1F	8%	-0.6%	-13	10%	-19%	0.2	-29
CCN(CCC#N)c1ccc(/C=N/Nc2nc(C)cc(=O)[nH]2)c(C)c1	?	.	-4	?	3%	7.4	-8
COc1cc([C@H]2[C@@H]3CCCC[C@]3(O)CCN2CC(=O)Nc2ccc(C)cc2C)ccc1O	9%	-1.4%	2	-21%	-18%	3.5	-5
COc1ccc(C2c3[nH]c4ccccc4c3CCN2Cc2cccn2-c2ncccn2)cc1C (stereo unspecified)	56µM*	.	-33	.	0%[15.4 µM]	?	8
Cc1cc(C)n(C(=O)CCNC(=O)c2ccccc2Br)n1	5%	-3.6%	-7	4%	0%	3.6	-3
Cc1cccc(NC(=O)/C=C/c2ccc([N+](=O)[O-])s2)c1	7%	1.5%	10	-9%	-34%	?	0
